NPYLR7 agonist = activates Aedes aegypti NPYLR7 receptor | HEK293T NPYLR7/Galpha15, GCaMP6s calcium fluorescence | activation, % at 10 µM | 270,000 tested, 0.15% active | AID 1259423; in the data active means activation above about 40%;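 further: 0% = vehicle and 100% = reference agonist at the receptor; some compounds past the cut are filed as inactive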
NPYLR7 agonist max-min = further read-out of NPYLR7 agonist, marked with its call; activation, %; measured here: Max-Min RFU normalised activation; some inactives read as strong as hits;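 span of the calcium signal over five minutes; 0% = vehicle and 100% = native peptide agonist; compound fluorescence can raise it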
Starred values were filed as active, the others as inactive.

SMILES	NPYLR7 agonist	NPYLR7 agonist max-min
CC(Oc1ccc(N(C)S(=O)(=O)c2cccs2)cc1)C(=O)Nc1ccc(F)c(F)c1 (configuration not stated)	4	2
CCN1CCC(N(C)C(=O)C2CC3CCCCC3N2C(=O)c2cnn(C)c2C)CC1 (configuration not stated)	4	4
C#CCNC(=O)c1ccc(N2CCn3c(nnc3C(F)(F)F)C2)nc1	8	3
CC1(Cc2cc(Cl)ccc2C(F)(F)F)C(=O)Nc2cc(F)ccc21 (configuration not stated)	3	4
CC(=O)NC(C)c1ccc(-c2cccc3cnccc23)cc1 (configuration not stated)	1	-1
Cc1ccc(N2CCn3c(SCc4cccnc4)nnc32)cc1	2	1
O=C(O)C(Cc1ccccc1)P(=O)(O)CN1CCOCC1 (configuration not stated)	21	0
O=C(CSc1ncn[nH]1)NC(=O)Nc1ccc(Br)cc1	9	5
Cn1cc(NC(=O)Nc2cccc(C#Cc3cccs3)c2)cn1	4	0
O=C1CCCCCN1CCc1nc(C2CC2)n[nH]1	8	-7
N#CCCNc1cccc(C(F)(F)F)c1	11	4
COCCCN(CC(=O)N(CCc1c[nH]c2ccccc12)Cc1ccc(F)cc1)C(=O)c1ccc(OC)cc1OC	15	11
COc1ccc(-n2nnc3c(SCc4cccc(C)c4)ncnc32)cc1	16	15
CCn1nc(C(C)C)cc1C(=O)N1CCO[C@@H]2CCCC[C@H]21	0	1
Cc1c(C(=O)N2CCCC2C)cnc2c(-c3cccc(C(F)(F)F)c3)cnn12 (configuration not stated)	-11	-10
Cc1ccccc1C(CC(=O)N1CCSCC1)c1ccccc1 (configuration not stated)	19	15
O=C(O)c1cc2c(s1)CCCCCC2	-6	-6
CCOC(=O)c1c(C)[nH]c(C(=O)N2CCCC(N(C)CCc3ccccc3)C2)c1C (configuration not stated)	0	-14
O=C(NCC(c1ccccc1)c1ccccc1)C1CCCCC1C(=O)N1CCc2c([nH]c3ccccc23)C1 (configuration not stated)	-16	-20
CCOC(=NC(C)C(C)C)NC(=O)c1cccc(C)c1 (configuration not stated)	9	5
CCCCc1ncc(-c2nccn2CCN(C)C)[nH]1	0	-1
CCOc1ccccc1C(=O)Oc1coc(CSc2nc(C)cs2)cc1=O	-11	-6
c1ccc(C2CCCN2Cc2ccc(-n3cncn3)cc2)nc1 (configuration not stated)	5	5
N=C(N)Sc1cn(Cc2ccc(Br)cc2)c2ccccc12	-4	-11
COc1ccc(C2=NN3C(C2)c2cc(Cl)ccc2OC3c2ccc(OC)cc2)cc1 (configuration not stated)	-6	-13

Single records (already shown). Values in the order: NPYLR7 agonist | NPYLR7 agonist max-min
Cc1ccc(N2CCn3c(SCc4cccnc4)nnc32)cc1 is listed as 2 | 1
Cc1c(C(=O)N2CCCC2C)cnc2c(-c3cccc(C(F)(F)F)c3)cnn12 (configuration not stated) is listed as -11 | -10

New compounds follow
SMILES	NPYLR7 agonist	NPYLR7 agonist max-min
CC1(c2ccc3c(c2)OCCO3)NC(=O)N(CC(=O)N2CCNC2=O)C1=O (configuration not stated)	6	1
COCc1cc(N2CCN(Cc3ccccc3)CC2)nc(SCc2ccc(C(=O)NCC3CC3)o2)n1	7	-4
CCN(CC)Cc1c(C(=O)OC(C)C)nnn1-c1nonc1N	16	8
COCCn1ccc2c(nnc3c(-c4ccccc4)cnn32)c1=O	3	2
CC(C)NC(=O)c1cc2c(=O)n3ccccc3nc2s1	3	-1
Cn1ccnc1CN(Cc1ccc2c(c1)OCCO2)C1CC1	-2	0
OC1CCCN(Cc2cnc3c(-c4ccccc4)cnn3c2)C1 (configuration not stated)	2	3
COc1ccc(-c2c(C#N)c(SCC(N)=O)nc3c2C(=O)CC(C)(C)C3)cc1	-2	3
O=C(NCc1ccccn1)C(C1CCCC1)N1CCN(C(=O)c2ccco2)CC1 (configuration not stated)	-5	1
COCCc1ncc(CN2CCCN(c3ccc(F)cc3)CC2)cn1	-3	-3
CC(=O)Nc1ccc(CN(C)c2c(C)nc3ccc(C(=O)Nc4ccc(C(N)=O)cc4)cn23)cc1	16	-1
COc1ccc(N2CCN(C(=O)CN(Cc3ccccc3)c3nc(Cc4cccc(OC)c4)ns3)CC2)cc1	-6	-6
Cc1cc(C)c(C)c(OS(=O)(=O)c2cn(C)c(=O)n(C)c2=O)c1	0	-1
COc1ccc(/C=C2\C(=O)c3c(O)ccc(C)c3C2C)cc1OC (configuration not stated)	5	3
CCCCS(=O)(=O)N1CCC(=O)N(CC2CC2)C(C(C)C)C1 (configuration not stated)	1	2
Cc1ccc(-n2nnnc2CNC(=O)c2ccc(S(=O)(=O)N(C)C)cc2)cc1	-6	-6
CN(C(=O)c1c[nH]c2ccc(S(=O)(=O)N3CCOCC3)cc2c1=O)C1CCCCC1	-4	4
CN(CCO)C(=O)c1ccc(OCCCOc2ccccc2)cc1	7	5
CCOc1ccc(C(C2Sc3nc(C)nn3C2=O)N2CCN(c3ccc(F)cc3)CC2)cc1OC (configuration not stated)	-6	-10
CC(C)CCN1CCC(C(=O)Nc2ccc(Oc3cccnc3)cc2)CC1	3	0
CC1(C(=O)N2CCC(O)(C(F)(F)F)C2)CC1(Cl)Cl (configuration not stated)	14	10
O=C(Cc1c[nH]c2ccccc12)N1CCC(n2nc(-c3ccccc3)cc2-c2ccccc2)CC1	7	5
Cn1cc(C(=O)c2ccccc2O)cc1-c1nc2sccc2c(=O)[nH]1	12	7
O=C(Nc1ccc(-c2nc3cc(Cl)ccc3o2)cc1)c1cccc(Cl)c1Cl	9	-4
CCc1cn[nH]c1C1CCN(CC2CCOC(C)(C)C2)CC1 (configuration not stated)	-4	-3
New compounds follow:
SMILES	NPYLR7 agonist	NPYLR7 agonist max-min
CC(C)c1nccn1CCCNC(=O)c1ccc(N2CCCO2)nc1	12	5
CC1CCCCN1C(=O)C1CCN(C(=O)c2ccc(Br)cc2)CC1 (configuration not stated)	16	7
COc1cccc(C(=O)N2CCN(Cc3nc4ccccc4nc3C)CC2)c1	5	4
COc1ccc(Cl)cc1CN(C)C(=O)c1cccc(NCC(=O)O)c1	6	3
CCC(NC(=O)NC(C)CCC1CCCO1)c1nc(C)cs1 (configuration not stated)	4	0
C[C@H](C(=O)NCCN1CCOCC1)N1Cc2ccc(-c3ccnn3C)nc2C1=O	9	13
CC(=O)NNC(=O)CSc1nc2nc(C)cc(C)n2n1	-1	2
Cc1ccc(C2C(=C(O)c3ccc(OC(C)C)cc3)C(=O)C(=O)N2CCCn2ccnc2)cc1 (configuration not stated)	6	7
C=CCn1c(N2CCN(c3ccccc3)CC2)nc2c1c(=O)[nH]c(=O)n2C	2	1
COC(=O)[C@@H]1C[C@@H](OCc2ccccc2)CN1C(=O)c1ccccc1C(=O)c1cccc2ccccc12	0	6
CC(Sc1nnc(-c2ccco2)n1C(C)C1CC2CCC1C2)C(N)=O (configuration not stated)	2	8
O=C(CSc1ccc(Cl)cc1)NNC(=O)c1ccc[nH]c1=O	2	1
COc1ccc(-c2cnc(N)nc2-c2ccc(OCc3ccc(F)cc3)cc2O)cc1	4	2
CCCCCC=CCC1CC(=O)N(CCNc2ccc([N+](=O)[O-])cn2)C1=O (configuration not stated)	-7	-12
CN(Cc1nc2ccccc2s1)C(=O)CNC(=O)c1ccccc1Cl	2	3
COc1ccc2c(c1)c1c3n2CCN(C)C3=NCC1	-8	-14
CCn1c(SCc2cn3cccc(C)c3n2)n[nH]c1=O	7	8
CC(=O)c1cc(C(=O)OCC(=O)Nc2ccc(C)cc2C)c2ccccn12	-5	-8
CNC(=O)c1cccc2c1C(=O)c1ccccc1-2	30	27
OC[C@H]1O[C@@H](n2cnc3c(NC4CCCC4)ncnc32)C(O)[C@H]1O (some centres not stated)	20	-3
O=C(CC12CC3CC(CC(C3)C1)C2)NCC(=O)N1CCC1	11	16
O=C(COc1ccc(Cl)cc1Cl)NCCCn1ncccc1=O	-9	-12
CSc1ccc(C(NC(=O)c2c(-c3ccccc3Cl)noc2C)c2cccc(Cl)c2Cl)cc1 (configuration not stated)	-3	-9
Cc1cc(CN2C(=O)c3ccccc3C2=O)c2[nH]c(C)c(C)c2c1	5	12
CCN1CCN(C(=O)c2cc(-c3ccccc3)n(-c3ccc4c(c3)OCO4)c2C)CC1	-4	-1

A draw from above in order of length of the SMILES, smallest number first.
SMILES	NPYLR7 agonist	NPYLR7 agonist max-min
O=C(COc1ccc(Cl)cc1Cl)NCCCn1ncccc1=O	-9	-12
COc1cccc(C(=O)N2CCN(Cc3nc4ccccc4nc3C)CC2)c1	5	4
CCCCCC=CCC1CC(=O)N(CCNc2ccc([N+](=O)[O-])cn2)C1=O (configuration not stated)	-7	-12

(more compounds)
SMILES	NPYLR7 agonist	NPYLR7 agonist max-min
Cc1nc2ccccn2c(=O)c1NC(=O)C(C)C	5	2
Cc1ccc(-n2c(C)cc(C(=O)CN(C)CC(=O)NC(C)(C)C)c2C)cc1F	0	-1
CCCc1nc2c(o1)C(C(=O)OC)C(C)(C)CC2=O (configuration not stated)	-2	-3
CC(=O)N1CCCN(Cc2cnc(S(=O)(=O)CC3CC3)n2CC2CCCCC2)CC1	0	-4
CN(CCc1cccs1)C(=O)NCc1cc2ccccc2[nH]1	11	7
Cc1sc(NC(=O)c2cc(-c3ccccc3Cl)nc3ccccc23)c(C#N)c1C	4	-5
O=C(COc1ccccc1)N1CCN(C(=O)CN2CCc3sccc3C2c2cccc(F)c2)CC1 (configuration not stated)	9	3
COc1cc(OC)cc(C(=O)Nc2cccc(-c3cccc(-c4cccc(OC)c4)n3)c2)c1	4	0
CC(C)CN(Cc1cccc(F)c1)Cc1cccn1Cc1ccccc1F	-2	-1
Oc1oc(-c2ccc(Cl)cc2)nc1C=Nc1cccnc1	26	15
Cc1cc(C)nc(NS(=O)(=O)c2ccc(NC(=O)C(C)(C)C)cc2)n1	5	4
Cc1cnn(CCCCCN2CCC(C(=O)N3CCCC3)CC2)c1	6	5
Cc1nc(C(C)C)cc(N2CCC(Cn3ccnc3)CC2)n1	2	-5
COc1ccc(OC)c(NC(=O)c2cc3cccc(OC)c3oc2=O)c1	-13	-20
O=C(CCl)Nc1ccc([N+](=O)[O-])cc1Cl	-1	-8
CC1CC(C)(C)Cc2c1sc(NC(=O)CCc1ccccc1)c2C#N (configuration not stated)	11	7
CCCCC(=O)Nc1nn(CC)c2nc3c(C)cccc3cc12	-10	-14
COc1ccc(NC(=O)C(C2CCCC2)N2CCN(C(=O)c3ccc(F)cc3)CC2)cc1OC (configuration not stated)	3	7
CCC(C)N(Cc1ccccc1F)CC(O)COCC(C)C (configuration not stated)	15	6
CCC(C(=O)N(Cc1ccc(F)cc1)Cc1cc(NC(=O)c2ccco2)ccc1N(C)C)c1ccccc1 (configuration not stated)	25	22
COc1ccccc1NC(=O)N(Cc1ccc(OS(=O)(=O)C(C)C)cc1)C1CC1	32	31
Cc1cc(NS(=O)(=O)c2ccc(N3Cc4ccccc4C3=N)cc2)no1	1	-5
Cc1onc(-c2ccccc2Cl)c1-c1nn2c(C3CC3)nnc2s1	8	0
COc1ccc(C(=O)N(Cc2ccccc2)C2CCC(NC(=O)C3CCN(C(=O)c4ccco4)CC3)CC2)cc1 (configuration not stated)	-18	-13
Cc1cccc(-n2cccc2CN2CCOC(CN)C2)c1 (configuration not stated)	4	0
Continuation.
SMILES	NPYLR7 agonist	NPYLR7 agonist max-min
CCSC1CCCC(NC(=O)N(C)CC2CCCN(C)C2)C1 (configuration not stated)	1	0
COc1cccc(Cn2ccnc2CN(Cc2ccco2)C(=O)c2ccc(C)cc2)c1	15	22
Cc1sc(C)c2c1-c1c(C)sc(C)c1C2C(=O)O	4	4
Cc1cccc(COn2cccc(C(=O)Nc3ccc(C)cc3C)c2=O)c1	7	12
Cn1c(=O)[nH]c(=O)c2c1nc(N1CCc3ccccc3C1)n2CCCc1ccccc1	-1	43
CC(C)c1noc(N2CCC(COc3ccc(-c4ccc(S(C)(=O)=O)cc4)nc3)CC2)n1	-3	-12
Cc1cccc(OCC(=O)NC2CCc3[nH]c4c(C)cc(Cl)cc4c3C2)c1C (configuration not stated)	30	15
Cc1ccccc1N1CCN(C(=O)c2cc(-c3ccco3)nn2-c2ccc(Cl)cc2)CC1	0	10
NS(=O)(=O)c1ccc2c(c1)/C(=C\c1csc(C3CC3)n1)C(=O)N2	8	8
CC1(C)OCC(C2OC(Nc3ccc(CC(=O)NCC4COc5ccccc5O4)cc3)[C@H]3OC(C)(C)O[C@@H]23)O1 (some centres not stated)	-12	-18
Cc1cc(C)cc(Cn2c(C)c(C(=O)NCCC#N)sc2=O)c1	10	4
CCOc1ccccc1/C=C1\N=C(c2ccc(OC)c([N+](=O)[O-])c2)OC1=O	-1	4
O=[N+]([O-])c1ccc(O)c(/C=N\Nc2nc(Nc3ccccc3)nc(Nc3ccccc3)n2)c1	-6	-10
CCOC(=O)C1=C2SCC(=O)N2C(=N)C(C#N)C1 (configuration not stated)	11	6
Cc1cnc(C(=O)Nc2c(C)cc(Br)c3ccccc23)cn1	-6	949
CCOc1ccc(C2CC(c3ccc(OC)c(OC)c3)=NN2C(=O)CN2CCN(CC)CC2)cc1 (configuration not stated)	5	16
O=C(NC1CCCc2ccccc21)c1cc2n(n1)CCN(Cc1c(F)cccc1Cl)C2=O (configuration not stated)	-8	-12

Given as a markdown table: part of the list above.
| compound | NPYLR7 agonist | NPYLR7 agonist max-min |
| --- | --- | --- |
| Cc1sc(C)c2c1-c1c(C)sc(C)c1C2C(=O)O | 4 | 4 |
| Cc1cccc(COn2cccc(C(=O)Nc3ccc(C)cc3C)c2=O)c1 | 7 | 12 |
| Cn1c(=O)[nH]c(=O)c2c1nc(N1CCc3ccccc3C1)n2CCCc1ccccc1 | -1 | 43 |
| CC(C)c1noc(N2CCC(COc3ccc(-c4ccc(S(C)(=O)=O)cc4)nc3)CC2)n1 | -3 | -12 |
| Cc1cccc(OCC(=O)NC2CCc3[nH]c4c(C)cc(Cl)cc4c3C2)c1C (configuration not stated) | 30 | 15 |
| Cc1ccccc1N1CCN(C(=O)c2cc(-c3ccco3)nn2-c2ccc(Cl)cc2)CC1 | 0 | 10 |

Source: PubChem

This is a subset. The share of hits here may be higher or lower than overall.
